High-throughput results (PubChem BioAssay)
Vaccinia pol inh = vaccinia E9 polymerase processive synthesis inhibition | AID 493162 | normalized absorbance, % (no concentration beside the values) | 46,000 compounds, 0.94% hits | in vitro processive DNA synthesis, absorbance read-out; active compounds read low; some inactives read as strong as hits;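 active = replicate mean up to 90% and picked by the depositor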;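 also: 100% = median of the test wells of a plate; 100 nL library stock went into each well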
* hit, by the source's call.

Molecule,Vaccinia pol inh
CCC(C)N=Cc1c(O)[nH]c(=O)[nH]c1=O (stereo unspecified),100
Cc1cc(C)n(C2CCS(=O)(=O)C2)n1 (stereo unspecified),100
CNC(=O)CSc1cn(CC(=O)N2CCC(C)CC2)c2ccccc12,102
CCOc1ccc2nc(SCCN(C)C)[nH]c2c1,124
CCC1CC(CN=CC2=C(O)CC(C)(C)CC2=O)C1(C)C (stereo unspecified),98
Nc1ccccc1-c1ccccc1N,100
CCCC1=NN2C(=N)/C(=C/c3ccc(OCCOc4ccccc4)cc3)C(=O)N=C2S1,100
CN(Cc1ccccc1)C(=O)COC(=O)c1ccc(I)cc1,101
COc1ccc2cc(C(C)C(=O)Nc3cc(Cl)cc(Cl)c3)ccc2c1 (stereo unspecified),95
CCc1nc(C#N)c(N2CCCCC2)o1,104
COC(=O)C1=NNC2(C)C(=O)N(c3ccccc3)C(=O)C12 (stereo unspecified),100
CN(C)c1ccc(/C=C2/C(=N)N3N=C(COc4ccccc4)SC3=NC2=O)cc1,100
Cc1cc(-c2ccco2)n(CC(=O)NCc2ccccc2Cl)n1,97
O=C1OC(c2ccccc2)=C/C1=C/c1ccc(Cl)cc1,100
CCOC(=O)c1nnn(-c2cccnc2)c1C,100
CCOC(=O)c1sc(N)nc1-c1ccccc1,103
O=C(CC1CCCCC1)OCn1nnc2ccccc2c1=O,103
CN(C)c1ccc(C2ON2C2CCC(O)CC2)cc1 (stereo unspecified),101
N#Cc1ccc(N=C/C(Br)=C/c2ccccc2)cc1,103
Cc1cc(C)n(CNc2nccs2)n1,100
CN(C(=O)c1cn(C)c(=O)cc1C(F)(F)F)c1ccc(Cl)c(Cl)c1,106
Cc1ccc(-c2csc(Nc3ccc4c(c3)OCO4)n2)cc1C,99
CC(C(=O)NCCCn1ccnc1)(c1ccccc1)c1ccccc1,100
O=C(O)c1cccnc1C(=O)N1CCc2c([nH]c3ccccc23)C1C(F)(F)F (stereo unspecified),94
O=C(Cc1ccc(Cl)cc1)NCCSc1ccccc1,93
COC(CNC(=O)c1cc(C)nn1-c1ccccc1)OC,103
COc1ccc2cc(C(=O)N3CCOCC3)sc(=O)c2c1OC,122
CN(C)C=Nc1ccc2nonc2c1,101
CC1(C)N=C(c2ccccc2)C(=S)N1C(=O)c1ccccc1,98
Cc1cc2c(cc1S(=O)(=O)NCC1CCCO1)n(C)c(=O)c(=O)n2C (stereo unspecified),107

In the list so far, these have four or more nitrogen atoms:
Molecule,Vaccinia pol inh
CCCC1=NN2C(=N)/C(=C/c3ccc(OCCOc4ccccc4)cc3)C(=O)N=C2S1,100
CN(C)c1ccc(/C=C2/C(=N)N3N=C(COc4ccccc4)SC3=NC2=O)cc1,100
CCOC(=O)c1nnn(-c2cccnc2)c1C,100
Cc1cc(C)n(CNc2nccs2)n1,100
CN(C)C=Nc1ccc2nonc2c1,101

(next part)
Molecule,Vaccinia pol inh
COc1cc2nc(-c3ccc4c(c3)C(=O)N(CC(C)C)C4=O)oc(=O)c2cc1OC,98
CCc1cccc(NS(=O)(=O)c2cc(Br)cc3c2N(C(=O)C2CC2)CC3)c1,106
Cc1ccc(N=C2NC(=O)CS2)c(C)c1,91
O=C(Cc1ccccc1)NCCN1CCCC1,99
CC1=COC=C(C=NCc2ccccc2)N1c1ccccc1,100
Cn1nc(-c2ccc(Cl)cc2)c2cc(C(=O)N3CCCC3)sc21,101
CC1(C)CC(=O)C=C(NCCCn2ccnc2)C1,100
CSc1nncc(-c2ccc(Cl)cc2)n1,101
Cc1cc(C)c(NC(=O)CSc2ccc3nnc(-c4ccccc4)n3n2)c(C)c1,101
Clc1ccc(-c2nc3c4ccsc4ncn3n2)cc1,108
CC(=O)Nc1nnc(S(N)(=O)=O)s1,92
Cc1cnc(C(=O)Nc2ccccc2-c2nnn(CC(=O)NC3CCCC3)n2)cn1,101
CN(C(=O)COC(=O)c1ccccc1O)C1CCCCC1,96
CC(NC(=O)CN1CCc2ccccc21)c1ccccc1 (stereo unspecified),87
COc1cc(/C=C/C(=O)O)cc(S(=O)(=O)N2CCOCC2)c1OC,100
FC(F)(F)c1cccc(NCc2cn3cccnc3n2)c1,101
O=C(COc1ccccc1)OCC(=O)C12CC3CC(CC(C3)C1)C2,100
COC(=O)c1c(C)oc2ccc(N(C(=O)Oc3ccccc3)S(=O)(=O)c3ccc(C)cc3)cc12,98
CCCc1cc(=O)[nH]c(=S)[nH]1,103
CC(N=C1CCCc2ccccc2N1)C(=O)O (stereo unspecified),100
CN(C)C(=O)CSc1nnc(-c2ccco2)o1,101
CC(=NC(C)C)C1=C(O)C(C)OC1=O (stereo unspecified),104
CCc1cccc(CC)c1NC(=O)c1cccs1,97
O=C(Nc1ccccc1C(=O)N1CCCC1)c1cccc(I)c1,100
CCCC(NC(=O)c1ccco1)C(=O)O (stereo unspecified),96
Cc1nc2sccn2c(=O)c1S(=O)(=O)N1CCCC1,104
O=C(Nc1cccc(-c2cn3cccnc3n2)c1)C1CCCC1,102
CC(=O)Nc1ccc(S(=O)(=O)N2CCc3ccccc32)cc1,100
Cc1cccc(C(=O)c2ccccc2C(=O)O)c1O,99
CC(c1ccccc1)n1c(SCc2cc(=O)oc3cc(O)ccc23)n[nH]c1=O (stereo unspecified),102

4 entries already listed, ordered by number of heavy atoms, low to high.
Molecule,Vaccinia pol inh
CCCC(NC(=O)c1ccco1)C(=O)O (stereo unspecified),96
Cc1nc2sccn2c(=O)c1S(=O)(=O)N1CCCC1,104
CC(=O)Nc1ccc(S(=O)(=O)N2CCc3ccccc32)cc1,100
O=C(O)c1cccnc1C(=O)N1CCc2c([nH]c3ccccc23)C1C(F)(F)F (stereo unspecified),94

The listing continues:
Molecule,Vaccinia pol inh
O=C(COc1ccccc1C(=O)O)NC12CC3CC(CC(C3)C1)C2,102
O=C(Cn1nc(C(F)(F)F)c2c1CCCC2)N1CCCc2ccccc21,102
O=C(NCCOc1ccccc1Cl)c1ccccc1Br,98
CC(C)N(Cc1ccccc1)S(=O)(=O)c1ccc(S(=O)(=O)c2ccccc2)s1,103
Cc1cc(-c2ccccc2N)nc2ccccc12,99
O=C(O)c1cc(=O)[nH]c2c(C(F)(F)F)cccc12,101
Cc1nc2c(Cl)c(Cl)c(Cl)c(N3CCOCC3)c2[nH]1,88
Cc1sc2ncnc(Sc3nnnn3-c3ccccc3)c2c1C,100
Cc1cc2ccccn2c1C(=O)c1cccc(S(=O)(=O)N(C)C)c1,95
CCSc1nnc(NC(=O)c2cccn(OCc3cccc(Cl)c3)c2=O)s1,100
C=CCn1c(Sc2ncnc3c2cnn3-c2ccccc2)nnc1-c1ccncc1,104
Cc1cc(C)cc(NS(=O)(=O)c2ccc3c(c2)CC(=O)N3)c1,97
Nc1cc(C(=O)OCC(=O)N2CCCc3ccccc32)ccc1Cl,100
COC(=O)c1cccc(C(=O)Nc2ccc(C)cc2)n1,102
O=C(Cc1ccc(NC2=NC3CS(=O)(=O)CC3S2)cc1)Nc1ccccc1 (stereo unspecified),102
COc1ccc(C(CC(=O)c2ccco2)C2CCCCC2=O)cc1 (stereo unspecified),100
CCCCCC(=O)/C=C/C=C\C/C=C\C/C=C\CCCC(=O)O,100
COc1cc2c(cc1OC)CN(S(=O)(=O)c1ccc3c(c1)OCCCO3)CC2,96
Cc1cccc(N/C=C/C(=O)c2cccs2)c1C,124
O=C(C1CCN(C(=O)N2CCOc3ccccc32)CC1)N1CCOCC1,106
O=C(c1ccccc1)N1CCCCC(Sc2ccccc2)C1=O (stereo unspecified),104
O=C(NCc1ccc(Cl)cc1)c1cnn2ccccc12,94
COC(=O)c1ccccc1NC(=O)Cn1c(CCC(=O)O)ccc1-c1ccccc1,94
O=C1CSC(=Nc2ccc(O)cc2)N1,97
O=c1ncn(Cc2ccccn2)cc1-c1ccccc1,106
CN(C(=O)CSc1nncc2ccccc12)c1ccccc1,96
C=C(Br)CSCc1nc2ccccc2[nH]1,94
CC(=O)NCc1c(F)cccc1Cl,98
O=C(O)CSc1ccc(Br)cc1,99
CC(C)Oc1ccc(C(=O)N=c2sc3cc(Cl)ccc3n2C)cc1,98
CC(c1ccccc1)n1c(COc2ccccc2)nc2ccccc21 (stereo unspecified),100
COc1ccc(C(=O)NC(=O)c2ccccc2O)cc1OC,96
CCN1C(=O)c2cccc3c(S(=O)(=O)NCCc4ccc(OC)c(OC)c4)ccc1c23,100
O=C(O)CCSc1ccccc1Cl,96
Cc1ccc(S(=O)(=O)Nc2ccc3oc(=O)sc3c2)cc1,82
NS(=O)(=O)c1ccc(N=CC2=C(O)c3ccccc3C2=O)cc1,100
CC(C)(C)N=C(NS(=O)(=O)c1ccc(Br)cc1)c1ccccc1,100
C=CCn1c(NCc2ccccc2)nc2ccccc21,100
O=C(O)CCc1ccc(-c2ccc(F)cc2)[nH]1,100
COc1ccc(C(=O)NC(c2c(C)[nH]n(-c3ccccc3)c2=O)(C(F)(F)F)C(F)(F)F)cc1,100
COC(=O)c1cn(NC(=O)C2CCCO2)c(=O)c2ccccc12 (stereo unspecified),102
CCc1ccc(-n2cnc3cc(C(=O)NCCc4ccccc4)ccc32)cc1,97
O=C(COc1ccc(F)cc1)Nc1ccc(-n2cnnn2)cc1,92
COc1ccccc1OCCn1c(N)nc2ccccc21,94
CC(=O)Nc1ccc(OCCCl)c(OCCCl)c1,105
CC(C)(C)c1cnnn1-c1ccc(NC(=O)COc2ccccc2)cc1,100
CCN1CCN(S(=O)(=O)c2cccs2)CC1,99
COc1ccc(CCNC(=O)CCCc2cn(C)c3ccccc23)cc1OC,105
COC(=O)C1=CN(c2ccc(F)cc2)C=C(C(=O)OC)C1c1cccs1,94
CCCc1cc(-c2nc(-c3ccc(Br)cc3)cs2)ccn1,100
O=c1oc2ccccc2cc1-c1cn2ccccc2n1,100
COc1ccc(OC)c(C(O)CNC(=O)CN)c1 (stereo unspecified),100
CN(Cc1ccccc1)C(=O)COc1ncnc2ccccc12,103
COC(=O)c1ccccc1S(=O)(=O)NC(=O)Nc1nc(C)c2c(n1)CCS(=O)(=O)C2,106
CCNC(=O)C1CCN(c2nc3c(C)cc(C)cc3s2)CC1,94
N#CC(C#N)=C(N)/C(C#N)=C/c1ccc(-c2cccc(C(=O)O)c2)o1,99
CCc1ccc(Oc2coc3cc(OC(=O)c4ccco4)ccc3c2=O)cc1,100
Cc1ccc2c(c1)sc(=NC(=O)c1cccs1)n2C,96
CCc1cc2[nH]c(C(=O)OC)cc2s1,98
Cc1cccc(/C=C2/Oc3ccccc3N(CC(=O)N3CCC4(CC3)OCCO4)C2=O)c1,90

(further entries)
Molecule,Vaccinia pol inh
O=C(CSc1nc2ccccc2o1)N1CCCC1,94
COc1ccc2c(C)cc(-n3nc(C)cc3C)nc2c1,99
O=C(NCC1CCCN2CCCCC12)c1cccc(Br)c1 (stereo unspecified),100
N#CC(C(=O)c1cccs1)=C1SCCCS1,97
Cc1cccc(OCC(O)CN2CCN(Cc3ccccc3)CC2)c1C (stereo unspecified),85
COc1ccc(-c2nc3ccsc3c(=O)o2)cc1,100
CC(=O)N1CCC(C(=O)Nc2ccc3nc(C)ccc3c2)CC1,117
O=C(Nc1c2c(nn1-c1ccccc1)CS(=O)C2)c1cccs1 (stereo unspecified),100
Cc1nnc(SCC2=C(C(=O)O)N3C(=O)[C@@H](NC(=O)Cn4cnnn4)[C@H]3SC2)s1,93
CC1CCN(CC(O)COc2ccccc2Br)CC1 (stereo unspecified),108
NCCCCC(N)C(=O)NC(Cc1c[nH]c2ccccc12)C(=O)NC(CCCCN)C(=O)O (stereo unspecified),100
Cc1ccc(OCC(=O)NC(C)C(=O)O)cc1 (stereo unspecified),101
CCCN1CCN(CCCNC(=O)c2cc3c(s2)-c2ccccc2S(=O)(=O)C3)CC1,93
N=C1C(c2nc3ccccc3s2)=C(O)CN1c1ccccc1,94
O=C(c1ccc(COc2cccc3ccccc23)cc1)N1CCCCC1,100
Cc1c[n+]([O-])n(-c2ccc(C(=O)O)cc2)n1,101
Cc1ccc(Nc2nc(Nc3ccc(C)cc3)nc(N3CCCCC3)n2)cc1,100
CN(CC(COc1ccccc1)OC(=O)c1ccc(Cl)cc1)C1=NS(=O)(=O)c2ccccc21 (stereo unspecified),101
CC1CN(C(=O)c2cc3cc(Br)ccc3oc2=O)CC(C)O1 (stereo unspecified),99
CN1C(C(=O)Nc2ccc(F)cc2F)=CC(c2ccc(F)cc2)=NS1(=O)=O,106
CN(C)C(=O)CSc1cnc2ccccc2n1,73
O=C1NC(=NCc2ccccc2)S/C1=C\c1ccc(Cl)cc1,100
COC(=O)/C=C/c1cn(-c2ccccc2)nc1-c1ccc(F)cc1,106
C=CCN(C#N)c1nc(N(C)C)nc(N(C)C)n1,100
O=C1c2ccc(-c3nc4ccccc4c(=O)o3)cc2C(=O)N1Cc1ccc(Cl)cc1,100
CC1=C(c2ccc(C)cc2)S(=O)(=O)NC1=NCc1ccccn1,98
CCCCn1c(C(Cc2ccccc2)NC(=O)COC)nc2ccccc21 (stereo unspecified),99
CCOc1ccccc1CNC(=O)CCc1cn(CC)c2ccccc12,104
CN1CCC(O)(c2ccccc2)C(C(=O)c2ccccc2)C1 (stereo unspecified),100
O=C(O)CSCC(=O)N1CCn2c3c(c4cc(C5CCCCC5)ccc42)CCCC31 (stereo unspecified),86
COc1ccc(-c2cc(=Nc3ccc(OC)c(OC)c3)c3ccccc3o2)cc1,94
CCn1cc(C(=O)NCCC(C)C)c2cc(OC)c(OC)cc2c1=O,99

These rows are one share of the data; count on the stated rates, not on these rows.
